Calb biofilm kill – mixture kills Candida albicans biofilm cells; inhibition, % at 7.6 µM; 120,000 compounds, 0.02% hits; AID 1242; C. albicans biofilm persisters + clotrimazole, fluorescence viability; primary screen in compound mixtures of four per well;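 active = inhibition above 30.3% in the primary screen of four-compound pools, then above 30% when the compound was retested; inconclusive = passed the primary limit but could not be retested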;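 also: compounds exposed to preformed 24 h biofilms for 48 h; the number belongs to the whole pool; some results filed as inactive read as strong as hits; inactives centre near 12; 0% = biofilm with clotrimazole alone and 100% = kill control; retested singly at about 60 µM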
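Test system: C. albicans CAF4-2 wild-type biofilms; buffer or medium: RPMI/MOPS medium, pH 7.0; schedule: 24 h biofilm formation, then 48 h compound exposure, 37 °C; detection: Alamar Blue fluorescence; measure: percent inhibition of biofilm viability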
Starred values were filed as active, the others as inactive; ? = inconclusive.

SMILES,Calb biofilm kill
COCCN(C(=O)CSc1nc2ccccc2c(=O)n1C(C)COC)c1c(N)n(Cc2ccccc2)c(=O)[nH]c1=O (stereo not drawn),1.2
COc1ccc(C(=O)Nc2ccc(C3CC3(Cl)Cl)cc2)cc1 (stereo not drawn),8.2
Cc1nc2c(ncn2-c2ccccc2)c(=O)n1NC(=O)CN1CCN(C)CC1,20.9
COc1cccc2c(=O)cc(C)n(CC(=O)Nc3ccc(Br)cc3)c12,16.9
C=CCn1c(SCc2ccc(C(=O)OC)cc2)nnc1-c1sc(N)nc1C,11.0
O=C(CSc1ccc2c(c1)OCCO2)NCc1ccccc1,-6.8
C=CCn1c(=O)c2ccc(C(=O)NCc3ccccc3)cc2n(Cc2ccccc2Cl)c1=O,9.5
Cc1ccccc1NC(=O)Cn1nnc(-c2ccc(CN3CCC(C)CC3)cc2)n1,10.3
Cc1cc(C)cc(NC(=O)C(Sc2nnc(C)c(=O)[nH]2)c2ccccc2)c1 (stereo not drawn),14.6
C/C(=N\NC(=O)CCc1ccccc1)C1C(=O)c2ccccc2C1=O,14.2
COc1ccccc1NS(=O)(=O)c1cccc(NC(=S)NCCN2CCOCC2)c1,17.2
CC(C)N(C(=O)CSc1nnc(NC(=O)c2ccco2)s1)C(C)C,21.4
CCN(CC)S(=O)(=O)c1ccc2c(c1)c(=O)c(C(=O)N1CCN(c3ccccc3)CC1)cn2C,7.6
Cn1ncc2c(NNC(=O)C3CCCCC3)ncnc21,14.2
CC1CN(C(=O)c2cccc(COc3ccccc3Cl)c2)CC(C)O1 (stereo not drawn),20.8
O=C(O)CC(C(=O)Nc1ccc(Cl)cc1Cl)C1CCCO1 (stereo not drawn),7.1
CCOc1ccc(-c2ccc(SCC(=O)N3CCN(c4ccccc4)CC3)nn2)cc1,10.7
O=[N+]([O-])c1nn(-c2ccc3c(c2)OCCO3)n(O)c1=NC1CCN(Cc2ccccc2)CC1,6.5
O=C(c1ccccc1)N1CCN(CC(O)Cn2ccc3ccccc32)CC1 (stereo not drawn),19.3
C=C(C)COc1ccc(-c2nc(N)ncc2-c2ccccc2OC)c(O)c1,20.2
COc1cc(/C=C/C(=O)OCC(=O)NCc2ccco2)cc(OC)c1OC,4.1
Cc1ccccc1NC(=O)c1ccc(NC(=O)C2CC(=O)OC23CCCCC3)cc1 (stereo not drawn),26.3
COc1cccc2sc(NNC(=O)C3COc4ccccc4O3)nc12 (stereo not drawn),22.7
COc1ccc(/C(C)=N/N2C(=O)c3ccccc3NC2c2ccc(O)c(OC)c2)cc1 (stereo not drawn),15.9
Cc1c(Br)c([N+](=O)[O-])nn1CC(=O)N1CCc2ccccc21,0.7
Cc1cc(/C=C(\C#N)C(=O)O)c(C)n1CC1CCCO1 (stereo not drawn),5.3
O=C(c1ccc(F)cc1)C1CCN(C(=O)Nc2ccccc2Cl)CC1,-6.8
CCCCN(C(=O)CSc1cc(C)c2ccccc2n1)c1c(N)n(Cc2ccccc2)c(=O)[nH]c1=O,17.7
Cn1c(CO)cnc1-c1ccccc1,14.7
O=S1(=O)CC2SC(=S)N(Cc3ccccc3)C2C1 (stereo not drawn),7.4
CCOC(=O)c1ccc(NC(=O)CN(C)S(=O)(=O)c2ccc(Br)s2)cc1,9.6
CCCNC(=O)c1ccccc1C(=O)NC1(C(=O)NCCC)CCCC1,26.2

The final 3 records of the section above are carried over, then new ones follow.
SMILES,Calb biofilm kill
O=S1(=O)CC2SC(=S)N(Cc3ccccc3)C2C1 (stereo not drawn),7.4
CCOC(=O)c1ccc(NC(=O)CN(C)S(=O)(=O)c2ccc(Br)s2)cc1,9.6
CCCNC(=O)c1ccccc1C(=O)NC1(C(=O)NCCC)CCCC1,26.2
CSc1ncnc2sc(C)c(C)c12,13.3
COc1cc(C(=O)Nc2nnc(C)s2)c([N+](=O)[O-])cc1OC,11.9
Cc1ccc(C(=O)N/N=c2\sc3ccccc3n2C)cc1,6.9
O=C1CC(c2ccccc2)CC(O)=C1C=NCc1ccncc1 (stereo not drawn),-1.2
C/C(CC(C)C)=N\NS(=O)(=O)c1ccc(C)c([N+](=O)[O-])c1,2.7
O=C(NCCO)/C(=C\c1cccc([N+](=O)[O-])c1)NC(=O)c1ccco1,11.1
Cc1cc(C)c(NC(=O)CSc2nccn2C)c(C)c1,22.5
CC(=O)Nc1ccccc1NC(=O)C/C(C)=N/NC(=O)c1ccc([N+](=O)[O-])c(Cl)c1,2.7
COC(=O)C1(C)NC(c2ccco2)C2C(=O)N(c3ccc(F)cc3)C(=O)C21 (stereo not drawn),13.6
C#Cc1ccc(CN2CCN(Cc3ccsc3)C(CCO)C2)cc1 (stereo not drawn),25.3
CCCCCCCCNC(=O)c1cnccn1,-13.9
CCN(CC)/C(Sc1ccccc1)=C(\C(Cl)=C(Cl)Cl)[N+](=O)[O-],12.9
CCc1ncc(C)nc1CC,9.9
COC(=O)N/N=C/c1ccc(OS(=O)(=O)c2ccc(C)cc2)c(OC)c1,22.0
CCn1c(C)nc2cc(N)ccc21,9.9
O=c1c2c(nc3c(-c4ccc(Cl)cc4)c[nH]n13)CCC2,2.6
O=C(COC(=O)c1ccc(-c2cnc3ccccc3n2)cc1)c1ccccc1,4.9
O=C(/C(=C/O)N=Nc1cccc(C(F)(F)F)c1)c1ccccc1,9.2
COc1ccccc1NS(=O)(=O)c1ccc(C(N)=O)cc1,15.6
COc1ccc(CC(=O)N/N=C(/C)c2ccco2)cc1,32.1
Clc1ccccc1-c1nnc2n1CCCCC2,9.1
O=c1[nH]c(-c2ccccc2)cs1,-7.1
Cc1nnc(SCc2cc(=O)oc3ccc4ccccc4c23)n1Cc1ccccc1,2.8
CCOCCCNCc1cn(-c2ccc(F)cc2F)nc1-c1ccccc1C,8.6
O=C(CSc1nc2ccc(N3CCOCC3)cc2c(=O)n1CCc1ccccc1)NCC1CCCO1 (stereo not drawn),12.0
CN(c1ccc(OCC(=O)OCC(=O)Nc2ccccc2F)cc1)S(=O)(=O)c1cccs1,9.9
NS(=O)(=O)c1ccc(NC(=O)c2ccc3nccnc3c2)cc1,24.3
COc1ccc(C(C)=O)cc1CSc1nc2ccccc2c(=O)n1-c1cccc(C)c1,20.3
Cc1c(C(=O)NC(=S)NCC(C)C)oc2ccccc12,8.2
COC(=O)c1c(C)[nH]c(C(=O)/C=C/c2ccccc2)c1C,20.6
COC(=O)c1ccc(-n2c(C)cc(-c3csc(NC(=O)c4ccc(S(=O)(=O)N(C)C)cc4)n3)c2C)cc1,-1.4
Cc1ccc(C(=O)OCc2cn(-c3ccccc3)nn2)cc1,12.3
Cc1ccc(C(=O)NC(N(C)C)C(Cl)(Cl)Cl)cc1 (stereo not drawn),14.9
COC(=O)c1sccc1-n1cccc1C(=O)C(=O)Nc1ccc(F)cc1,6.0
CC(C)(C)OC(=O)CNC(=O)c1[nH]cnc1C(=O)Nc1ccc(Cl)cc1,16.7
Cc1ccc(S(=O)(=O)NN2C(=O)c3ccccc3NC2c2ccccc2O)cc1 (stereo not drawn),6.0
CCCc1c(C(=O)Nc2ccc(OC)cc2)cnn1-c1ccccc1,3.8
Cc1c(F)cccc1NC(=O)CCCCCC1NC(=O)NC1C (stereo not drawn),15.4
CCOc1ccc(NC(=O)Nc2cccn(Cc3ccccc3)c2=O)cc1,15.1
COCc1nnc(NC(C)=O)s1,21.9
C(=N\Nc1nc2ccccc2[nH]1)/c1ccc2c(c1)OCCO2,15.5
Cc1ccc(-n2c(=O)c3sccc3n(Cc3cc(=O)n4ccccc4n3)c2=O)cc1,2.9
O=C(O)c1ccc(/C=N/NC(=O)c2ccc(Br)cc2)cc1,20.6
Cc1sc2nc(SCC(=O)NCCO)n(-c3ccccc3)c(=O)c2c1C,22.9
O=C(Nc1ccc(NC(=O)c2cccs2)cc1)c1ccc2c(c1)OCCO2,47.6
O=C(NCC1CCCO1)c1ccc(Br)o1 (stereo not drawn),13.7
NS(=O)(=O)c1ccc(NC(=S)N2CCN(S(=O)(=O)c3ccc(F)cc3)CC2)cc1,14.1
CC(C)NC(=O)COC(=O)/C=C/c1ccc(F)cc1,9.4
Cc1cc(C)n(C2CC(=O)N(c3ccc(C)c(Cl)c3)C2=O)n1 (stereo not drawn),7.2
Cc1ccc(C2/C(=C(/O)c3cnn(-c4ccccc4)c3C)C(=O)C(=O)N2CCCN2CCOCC2)o1 (stereo not drawn),22.4
COc1ccccc1CC(=O)Nc1cccc(C)n1,-7.0
CC(C)C(=O)Nc1ccc(NC(=O)CCc2ccccc2)cn1,-0.2
CCOC(=O)c1cc(-c2csc(COc3ccccc3Cl)n2)on1,12.8
CC1CN(c2ccccc2)CCN1Cc1nc(Cc2ccccc2)no1 (stereo not drawn),-5.9
CCOC(=O)CNC(=O)C1Cc2ccccc2CN1S(=O)(=O)c1cccs1 (stereo not drawn),16.4
O=C(O)CCN1C(=O)c2ccc(NC(=O)Cc3ccc(Cl)cc3)cc2C1=O,10.6

(list continues)
SMILES,Calb biofilm kill
CC(CN(C)Cc1nc(Cc2cccc(C(F)(F)F)c2)no1)CN1CCCC1 (stereo not drawn),15.9
Cc1ccc(CN2CCN(Cc3ccccc3)C(CCO)C2)s1 (stereo not drawn),9.6
CCN(CC)CCn1c(=N)n(CC(O)COc2ccccc2)c2ccccc21 (stereo not drawn),0.8
Cc1nn(C)cc1CNC(=O)C1C2CCC(C2)C1C(=O)O (stereo not drawn),7.7
O=C(Cc1ccccc1)NCc1n[nH]c(=S)n1-c1ccccc1,4.7
NC(=O)c1cc2cc(Cc3ccccc3Cl)ccc2oc1=O,15.4
COc1cccc(N2C(=O)C3C(C2=O)C3(c2ccccc2)c2ccccc2)c1 (stereo not drawn),11.2
O=C(NNC1CC(c2ccccc2)=NN1C(=O)c1ccccc1)c1ccccc1 (stereo not drawn),10.7
N#Cc1sc2nc(C3CC3)cc(-c3ccc(Cl)cc3)c2c1N,16.1
O=c1cc2ncc(-c3[nH]ncc3[N+](=O)[O-])cn2[nH]1,17.5
CCN(Cc1ccccc1)C(=O)COC(=O)c1cnc(C)cn1,6.7
CCOc1ncccc1C(=O)Nc1ccc(F)c(Cl)c1,8.9
CCc1nc2cc3sc(CC)nc3cc2s1,12.5
CC1(C)Cc2cccc(C(=O)NC3CCN(Cc4ccccc4)CC3)c2O1,19.7
C#CCOCCOCCOCCNc1nc(N2CCOCC2)nc(N2CCN(C(=O)[C@H]([C@@H](C)CC)n3cc(CCCCN)nn3)CC2)n1,16.7
O=[N+]([O-])c1ccc(-n2cccc2/C=N/Nc2nc(N3CCCCC3)nc(N3CCCCC3)n2)cc1,8.0
CNCC/C=C1/c2ccccc2CSc2ccccc21,15.9
CN(C)CCCNC(=S)Nc1ccc(Br)cc1,14.8
CC(C)c1ccc(C2=NN(c3ccccc3)C(=O)CC2)cc1,21.5
O=C(Cn1cc(C(F)(F)F)ccc1=O)N/N=C/c1ccccc1,4.3
NNC(=O)CSc1ncc(-c2ccccc2)[nH]1,12.2
Cc1cc(C)c2nc(N3CCC(C(=O)NCc4cccnc4)CC3)sc2c1,14.2
Cc1ccc(S(=O)(=O)N(CC(=O)N/N=C/c2ccccc2C(=O)O)c2cc(Cl)cc(Cl)c2)cc1,-1.2
CN(C)S(=O)(=O)c1cccc(NC(=O)COC(=O)CCC(=O)c2cccs2)c1,12.7
Cc1nonc1OCCNc1ccc([N+](=O)[O-])cc1[N+](=O)[O-],18.5
CCCN1CC(O)=C(C#N)C1=O,2.9
COc1cccc(CN(C)CC(=O)Nc2cccc3ccccc23)c1,14.9
Cc1c(-c2cccc(Cl)c2)nc2ccccc2c1C(=O)OCC(=O)Nc1ccc2c(c1)OCO2,4.7
Cc1c(Cl)ccc2c(C(=O)O)cc(-c3ccccc3)nc12,8.1
Cc1ccc(C)c2sc(NC(=O)c3nc4ccccc4s3)nc12,17.5
COc1ccc2c(Cl)c(C(=O)NCC3CCCO3)sc2c1Cl (stereo not drawn),11.8
COC(=O)c1ccccc1NC(=O)COC(=O)[C@H](C)NC(N)=O,27.3
CN(C)c1ccc(CC(=O)c2nc3ccccc3s2)cc1,?
Cc1cc(-c2n[nH]c(=S)n2/N=C/c2cccc([N+](=O)[O-])c2)n[nH]1,4.1
COc1ccc(/C=C/C(=O)Nc2ccccc2)cc1OC,17.3
CCN1CCN(C(=S)NC(C)c2ccccc2)CC1 (stereo not drawn),6.1
CCOC(=O)N1CCN(C(=O)c2ccccc2NC(=O)c2ccc(F)cc2)CC1,6.3
O=C(Nc1ccc(Oc2ccccc2)cc1)c1ccc(Cn2c(=O)[nH]c3ccsc3c2=O)cc1,7.5
Clc1ccc2scc(CN3CCCCC3)c2c1,12.9
Cc1cc(C)c(C(=O)O)c(CC(C)(C)C(=O)O)c1,-2.9
CC(=O)N/N=C(\C)CC(=O)Nc1cccc(C(F)(F)F)c1,16.1

Screening data deposited in PubChem BioAssay by PCMD.

A portion of the library; count on the stated rates, not on these rows.
